High-throughput results (PubChem BioAssay)
SARS PLP yeast: SARS-CoV PLP inhibition in yeast. S. cerevisiae expressing SARS-CoV PLpro, growth rescue; control for the full effect not named in the record. Potency, µM (top dose mostly 32.9 µM), for inactives: at the highest dose activity, positive = growth rescue. hit rate 0.19% among 330,000; active means well fitted rising curve with a large enough effect; inconclusive means small, poorly fitted or top-dose-only effect; inactive means no such curve, though single readings can be large or run the other way; note: 0% is about no effect; nearly all actives have a fitted effect of over 55% in size; growth read by luminescence after 48 h
RE007 growth inh: less growth of the S. pombe RE007 Vpr strain; S. pombe RE007 Vpr strain, BacTiter-Glo ATP luminescence, 24 h; control for the full effect not named in the record; Potency, µM (doses to about 92.2 µM), for the others: at the top dose activity change, negative = less growth; hit rate 0.21% among 360,000; AID 651644; active = well fitted falling curve with a large enough effect; inconclusive = small, poorly fitted or top-dose-only effect; inactive = no such curve, though single readings can be large or run the other way;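 note: % is set by controls: 0 for no effect and ±100 for the full control effect; nearly all actives have a fitted effect of over 50% in size; the assay follows cell death caused by Vpr and the record does not say whether a fall means rescue or toxicity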
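Fission yeast RE007 carrying one integrated HIV-1 vpr copy, seeded at OD 0.01 in PMG+AL medium with 23 nL pinned compound. Grown 24 h at 30 degrees; viability read by BacTiter-Glo luminescence after 5 min.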
StopGo reporter: FMDV 2A StopGo reporter, luciferase signal. hit rate 1.2% among 410,000. human cells with a luciferase reporter of 2A StopGo recoding; control for the full effect not named in the record. Potency, µM (top dose mostly 57.9 µM), for inactives: top-dose signal change, negative = less light. AID 1159524; active = well fitted falling curve with a large enough effect; inconclusive = small, poorly fitted or top-dose-only effect; inactive = no such curve, though single readings can be large or run the other way; tested in HEK293T cells; note: % is set by controls: 0 for no effect and ±100 for the full control effect; nearly all actives have a fitted effect of over 45% in size; luciferase light after 4 h
* hit, by the source's call; ? = inconclusive; [ ] = another dose, or the depositor's remark. Potency is the fitted concentration of half-maximal effect.

SMILES | SARS PLP yeast | RE007 growth inh | StopGo reporter
CCOc1ccc(OCCCC(=O)ON=C(N)c2ccccc2Cl)cc1 | -4% | 0% | -20%
Nc1nnc(SCC(=O)NCCNC(=O)CSc2nnc(N)s2)s1 | 1% | -2% | -1%
O=C(O)CCNC(=O)/C(=C/C=C/c1ccccc1)NC(=O)c1ccccc1 | 0% | 4% | 5%
Cc1cccc(C)c1NC(=O)CNC(=O)C1CCCC1 | -8% | -2% | 13%
Cc1cc(NC(=O)CSc2nnc(-c3ccco3)n2C)no1 | 1% | -9% | -13%
C[C@H]1CN([C@@H](C)CO)C(=O)Cc2cc(NC(=O)CCC(F)(F)F)ccc2O[C@H]1CN(C)S(=O)(=O)c1ccc(Cl)cc1 | -2% | 2% | -21%
CCOC(=O)[C@H]1[C@H]2COc3ccc(Cl)cc3[C@@H]2N2C(=O)CN(Cc3ccccc3)C(=O)[C@@]12C | 8.9µM* | 2% | -26%
Cc1cc([N+](=O)[O-])nn1CCCC(=O)Nc1cccnc1Cl | 1% | 12% | -9%
Cc1ccc(Oc2ccc(S(=O)(=O)Nc3ccc(C(=O)O)cc3)cc2)cc1 | -20% | 2% | -2%
CCC(C)[C@H]1CNCCN1CCc1cc(C(F)(F)F)cc(C(F)(F)F)c1 (stereo partly drawn) | 2% | 8% | -14%
CCCn1c(N)c(N(CCOC)C(=O)Cc2ccc(S(=O)(=O)N3CCOCC3)s2)c(=O)[nH]c1=O | 3% | -8% | -8%
O=C(CN1c2cccc3cccc(c23)S1(=O)=O)N1CCCCC1 | 5% | -9% | -15%
C[C@H](CO)N1C[C@H](C)[C@@H](CN(C)Cc2ccc(C(=O)O)cc2)Oc2ccc(NS(=O)(=O)c3cn(C)cn3)cc2C1=O | -9% | 0% | -13%
NC(=O)Nc1ccc(C(=O)N2CCN(S(=O)(=O)Cc3ccccc3)CC2)cc1 | 0% | 2% | -12%
COc1ccc(CC(=O)NCC2(N3CCCCC3)CCCCC2)cc1 | 0% | 4% | -2%
O=C(COc1ccccc1Br)Nc1ccc(S(=O)(=O)N2CCCC2)cc1 | -22% | 1% | ?
Cn1c(-c2ccccc2)cc2onc(-c3ccccc3)c2c1=O | -15% | 5% | -88%
COC(=O)C1=C(c2ccc(C(C)=O)cc2)C[C@@H]2CC[C@H]1N2C(=O)N1CCC(O)CC1 | 4% | 4% | -4%
O=c1cc(-c2ccsc2)oc2ccccc12 | -7% | -24% | 55%[activator]
O=C(C1CCC(CNS(=O)(=O)c2cccc3nsnc23)CC1)N1CCN(c2ccccn2)CC1 (stereo not drawn) | 4% | -22% | ?
CCCc1ccc(-c2csc(NC(=O)C3=COCCO3)n2)cc1 | 5% | -15% | 23%
O=C(Nc1cccc(Cl)c1)c1nc[nH]c1C(=O)NCc1ccccc1 | 3% | 8% | -14%
CC1(C)CC(=O)C/C(=N/Nc2nc3ccccc3s2)C1 | -1% | 0% | 30%
COc1ccc(C2=NOC(Cn3nc(-c4ccccc4)cc3C(=O)O)C2)cc1 (stereo not drawn) | 7% | 8% | 27%
O=C(NCCN1C(=O)S/C(=C/c2ccccc2)C1=O)C1CC(=O)N(Cc2ccccc2)C1 (stereo not drawn) | -3% | -2% | -22%
COc1ccc(OCC(=O)NCCC2=CCCCC2)c([N+](=O)[O-])c1 | -5% | 10% | -15%
O=C(O)c1cccc(N/N=C/C2=C(Cl)c3cc(Cl)ccc3SC2)c1 | -4% | 4% | -27%
CCOc1ccc(S(=O)(=O)NC2=NCCCCC2)cc1 | 0% | -1% | 10%
CCOc1cc(C=O)cc(Cl)c1OCC(N)=O | 0% | 3% | 5%
CCc1ccc(C(=O)NNC(=O)C2CC(=O)N(c3ccc4c(c3)OCCO4)C2)cc1 (stereo not drawn) | -1% | -2% | -6%
Cc1cc(C(=O)NCCCN(C)C)c2ccccc2n1 | -5% | -15% | -15%
CC(C)(C)c1ccc(C(=O)N2CCN(S(=O)(=O)c3ccc(Br)s3)CC2)cc1 | -2% | -5% | ?
COc1ccccc1N(CC(=O)N(C)Cc1ccccc1)S(=O)(=O)c1cccs1 | -11% | -14% | 12%
Nc1cc(C(=O)OCC(=O)Nc2cccc(S(=O)(=O)N3CCOCC3)c2)ccc1Cl | 2% | -14% | -15%
CCCn1c(SCC(=O)Nc2ccccc2C(=O)NC2CC2)n[nH]c1=O | -1% | -4% | -18%
Cc1ccc(S(=O)(=O)N2CCN(C(=O)C3CC(=O)N(c4ccc5c(c4)OCCO5)C3)CC2)cc1 (stereo not drawn) | -2% | -7% | 0%
CC1CC(C)CN(C(=O)C(C)N2CCN(S(=O)(=O)c3cccs3)CC2)C1 (stereo not drawn) | 4% | -3% | -27%
CN(c1ccc(-c2csc(NC(=O)C3CC(=O)N(Cc4ccco4)C3)n2)cc1)S(C)(=O)=O (stereo not drawn) | 4% | 9% | 22µM*
COc1ccc(-c2sc3ccccc3c2-c2ccc(O)cc2)cc1 | -9% | -50% | -20%
COc1cccc(-c2ncc3ccccc3c2COC(=O)c2ccc(Br)cc2)c1 | -1% | -20% | 0%
CC(=O)Nc1ccc(C(=O)OCC(=O)N(c2ccccc2)C2CCS(=O)(=O)C2)cc1 (stereo not drawn) | -10% | -11% | 2%
O=C(c1ccco1)N1CCN(C(=O)c2ccc(-c3ccc(Cl)cc3)o2)CC1 | -12% | -5% | ?
COc1ccc(Cl)cc1NC(=O)CN(C)CC(=O)Nc1c(C)n(C)n(-c2ccccc2)c1=O | -10% | -11% | -23%
C[C@H](CO)N1C[C@H](C)[C@@H](CN(C)C(=O)Nc2ccc3c(c2)OCO3)Oc2ccc(NS(=O)(=O)c3ccc(F)cc3)cc2C1=O | 5% | 16% | -12%
CC1(C)CC[C@]2(C(=O)O)CC[C@]3(CO)C(=CCC4[C@@]5(C)C[C@H](O)[C@H](O)[C@@](C)(C(=O)O)C5CC[C@]43C)[C@@H]2C1 (stereo partly drawn) | 0% | 16% | -4%
Cc1csc(=O)n1CC(=O)OCC(=O)Nc1ccccc1C(C)C | 5% | -1% | -11%
Cc1ccc(NC(=O)COc2ccccc2C(N)=O)cc1S(=O)(=O)N1CCCCCC1 | 6% | 7% | 25µM*
COc1ccc(-c2ccc3c(c2)S(=O)(=O)c2cccc(C(=O)N4CCN(c5c(Cl)cncc5Cl)CC4)c2C3=O)cc1OC | 3% | -1% | -7%
COC(=O)C1=C(c2ccc(F)cc2OCc2ccccc2)C[C@@H]2CC[C@H]1N2C(=O)NCc1ccccc1Br | 0% | 13% | -24%
COc1cc(OC)cc(C(=O)NC(C(=O)Nc2ccc3c(c2)OCCO3)C(C)C)c1 (stereo not drawn) | -3% | -5% | 15%
COc1cccc(C(c2c(NC(=O)c3ccco3)sc(C)c2C)N2CCOCC2)c1 (stereo not drawn) | 2% | 5% | -12%
CCOc1ccc(NC(=O)Cc2ccc(S(=O)(=O)N3CCCCC3)cc2)cc1OCC | -2% | 6% | -11%
CC(C)c1cccc(C(C)C)c1OC(=O)[C@H]1OC(C(C)(C)C)=C[C@@H]1c1ccccc1 | 1% | -2% | ?
CC(=O)c1cccc(NC(=O)COC(=O)Cn2cnc3ccccc32)c1 | -2% | 7% | 25%
COc1cccc(CC(=O)OCC(=O)NNC(=O)c2ccc(Br)cc2)c1 | 1% | -23% | -4%
CCOC(=O)c1cc(-c2ccccc2C)nn1Cc1cc(CC)no1 | -1% | -5% | 36%[activator]
CCOC(=O)c1nn(-c2ccccc2C)c(=O)cc1OCC(=O)Nc1cccc(OC)c1 | 5% | -1% | ?
Cc1ccc(C(=O)c2ncc[nH]2)cc1 | 1% | 5% | 66%[activator]
COC(=O)c1ccc2[nH]c(C3(O)CCCCC3)c(C)c2c1 | -11% | -1% | 55%[activator]
CC(=O)N1CCN(c2ncnc3sc(-c4ccccc4)cc23)CC1 | -2% | 8% | -30%

Continued:
SMILES | SARS PLP yeast | RE007 growth inh | StopGo reporter
CC(=NNC(=O)c1ccc(NS(=O)(=O)c2cccs2)cc1)c1ccc(OCC(N)=O)cc1 | 4% | 2% | -7%
CCOC(=O)[C@H]1[C@H]2COc3ccc(Br)cc3[C@H]2N2C(=O)CNC(=O)[C@@]12C | 0% | -12% | -18%
CCc1ccc(S(=O)(=O)NCCc2cn3ccc(C)cc3n2)s1 | 0% | 1% | -19%
CC(=O)c1c(C)[nH]c(C(=O)COC(=O)c2c(C)noc2C)c1C | 3% | 7% | 0%
CCN1CCN(S(=O)(=O)c2ccc(Cl)c(C(=O)N(C)Cc3cccs3)c2)CC1 | 8% | -8% | -27%
Cc1ccccc1C1=N/C(=C/c2cccs2)C(=O)O1 | -1% | -27% | -17%
O=Nc1c2cc(-c3ccccc3)[nH]nc-2c2ccccc12 | -2% | ? | ?
COc1ccc(CNC(=O)COC(=O)C(CCSC)N2C(=O)c3ccccc3C2=O)cc1 (stereo not drawn) | -1% | 16% | -18%
COc1cc(COC(=O)Oc2ccc(CNC(C)=O)cc2OC)c([N+](=O)[O-])cc1OC | -6% | 7% | 0%
O=C(O)c1cn(Cc2ccccc2)c2ccc(Cl)cc2c1=O | 2% | -4% | -21%
O=C(Nc1cc(-c2nc3ncccc3o2)ccc1Cl)c1ccc2c(c1)OCO2 | -6% | -6% | -7%
Cc1noc(C)c1S(=O)(=O)N(C)C[C@H]1Oc2ccc(NS(=O)(=O)c3ccccc3)cc2C(=O)N([C@H](C)CO)C[C@@H]1C | 1% | 0% | -13%
O=C(NNC(=O)c1ccccc1F)c1cccc(S(=O)(=O)N2CCc3ccccc32)c1 | 1% | -4% | -24%
CN(C(=O)c1ccc(NC(=O)Cc2ccc(NC(=O)C3CCN(C(=O)C4CCCCC4)CC3)cc2)cc1)C1CC1 | -1% | 3% | 1%
COC(=O)c1cc(C#N)c(=O)[nH]c1C | -4% | 11% | -17%
COC(=O)CC/C(=N/Nc1ccc(Cl)c(Cl)c1)C(=O)OC | -6% | -6% | 21%
CCOC(=O)c1ccc(NC(=O)Nc2cccc(C)n2)cc1 | 0% | 9% | 14%
COc1ccc(NC(=S)N(CCCN2CCCC2)Cc2cccn2Cc2ccc(Cl)cc2)cc1Cl | -1% | 9% | -24%
COc1ccc(S(=O)(=O)N2CCN(CC(=O)NCCc3cccs3)CC2)cc1 | -3% | -2% | -5%
Fc1cccc(Cl)c1CSc1ccc(-c2cccnc2)nn1 | -11% | -4% | 8%
COC(=O)c1c(-c2ccccc2OC)sc2cc3c(cc12)OCO3 | -12% | -25% | -6%
C#CCOCCOCCOCCNc1nc(N2CCN(C(=O)CCCCCCCCCCNC(=O)Cn3cc(CCCCCN)nn3)CC2)nc(N2CCN(C(=O)CCCCCCCCCCNC(=O)[C@H]([C@@H](C)CC)n3cc(CCCCN=C(N)N)nn3)CC2)n1 | -7% | -1% | 0%
O=C1CC/C=C\C[C@@H](CC(=O)N(CCO)Cc2ccccc2)C(=O)N[C@H](Cc2c[nH]c3ccccc23)CO1 | -5% | -6% | -4%
COc1cc(OC)cc(C(=O)NCC(=O)NCc2ccccn2)c1 | 2% | -15% | -13%
CNC[C@@H]1Oc2c(NC(=O)Nc3ccc(F)cc3)cccc2C(=O)N([C@H](C)CO)C[C@@H]1C | 6% | 6% | -19%
COc1cc(Cl)c(C)cc1NC(=O)CN1C(=O)C2CC=CCC2C1=O (stereo not drawn) | 0% | -7% | -23%
C=CCC[C@@H](Cc1ccc(F)cc1)C(=O)OC[C@@H](Cc1c[nH]c2ccccc12)NC(=O)[C@@H](CC=C)CC(=O)N(CCO)Cc1ccccc1 | 4% | 9% | -16%
C=CC[C@@H](CC(=O)NCCO)C(=O)N[C@@H](COC(=O)[C@@H](CC=C)CC(=O)OC(C)(C)C)Cc1c[nH]c2ccccc12 | 5% | -15% | -29%
COc1cccc(NC(=O)CN(C)C(=O)c2cc(S(=O)(=O)N3CCCCCC3)ccc2OC)c1 | -17% | 4% | -22%

These rows are one share of the data. The share of hits here may be higher or lower than overall.
